Screening data deposited in PubChem by ICCB-Longwood Screening Facility, Harvard Medical School.
Bm FixLJ act = activators of Burkholderia fixLJ two-component system, primary screen, B. multivorans, GFP reporter; B. multivorans fixK-promoter GFP reporter, 18 h; active compounds read high; z-score (concentration not given with the values); 0.3% of 29,000 active;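 active means replicate mean overnight rise in green fluorescent reporter signal, 3 or more SD over negative controls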;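 further: score is relative to vehicle wells of the plate; 300 nL library stock went into each well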
* = called active by the depositor; & = joins results of further samples.

The first 4 records, to show the layout:
Screening CN1CC2(CCCN(C(=O)Nc3ccnn3-c3ccccc3)CC2)OC1=O (stereo not drawn) returned Bm FixLJ act 0.25.
`CCCc1nnc(N2C(=O)c3oc4ccc(F)cc4c(=O)c3C2c2ccc(C(=O)OC)cc2)s1` (stereo not drawn) gave Bm FixLJ act -1.8.
Cc1ccc(C)c(CN2C(=O)c3ccccc3S(=O)c3ccc(C(=O)N4CCN(c5cccc(Cl)c5)CC4)cc32)c1 (stereo not drawn) was read as Bm FixLJ act 2.48.
For COc1ccc(NC(=O)Cn2cc(S(=O)(=O)N3CCN(c4ccccc4F)CC3)c3ccccc3c2=O)cc1Cl the results were Bm FixLJ act 1.61.

All compounds of this part, previewed entries included:
Screening CN1CC2(CCCN(C(=O)Nc3ccnn3-c3ccccc3)CC2)OC1=O (stereo not drawn) returned Bm FixLJ act 0.25.
`CCCc1nnc(N2C(=O)c3oc4ccc(F)cc4c(=O)c3C2c2ccc(C(=O)OC)cc2)s1` (stereo not drawn) gave Bm FixLJ act -1.8.
Cc1ccc(C)c(CN2C(=O)c3ccccc3S(=O)c3ccc(C(=O)N4CCN(c5cccc(Cl)c5)CC4)cc32)c1 (stereo not drawn) was read as Bm FixLJ act 2.48.
For COc1ccc(NC(=O)Cn2cc(S(=O)(=O)N3CCN(c4ccccc4F)CC3)c3ccccc3c2=O)cc1Cl the results were Bm FixLJ act 1.61.
Screening CCn1c(=O)cc(SCC(=O)NCCc2ccc(Cl)cc2)c2ccccc21 returned Bm FixLJ act -0.67.
Cc1cccc(CCNC(=O)CCc2c(C)nc3c4c(C)cc(C)nc4nn3c2C)c1 was read as Bm FixLJ act -0.16.
`COc1cccc(-c2nnc(SCC(=O)NC3CCCCC3)o2)c1` gave Bm FixLJ act -0.92.
Screening CC(C)c1nnc(C(C)NC(=O)Cc2cccc(F)c2F)o1 (stereo not drawn) returned Bm FixLJ act -1.05.
Screening O=C(C1CCCN(S(=O)(=O)c2cccc3nonc23)C1)N1CCN(c2cccc(Cl)c2)CC1 (stereo not drawn) returned Bm FixLJ act -0.48.
Screening CN(Cc1ccon1)C(=O)C1CCN(c2ccc(C(F)(F)F)cn2)C1 (stereo not drawn) returned Bm FixLJ act 0.56.
Screening Cc1ccccc1-c1nc(C(N)=O)c2c(n1)n(-c1ccc3c(c1)OCO3)c(=O)n2C returned Bm FixLJ act 0.
O=C(NCc1cccc(F)c1)C1CCN(C(=O)c2sccc2-n2cccc2)CC1 was read as Bm FixLJ act -0.87.
Screening COc1ccc(NC(=O)Cn2c(=O)n(CCCC(=O)NCc3ccccc3OC)c(=O)c3ccccc32)cc1Cl returned Bm FixLJ act 0.75.
`CCCc1nc(CN(CC)Cc2ccccc2Cn2cccn2)no1` gave Bm FixLJ act 0.58.
`CCOC(=O)[C@]12COCCC1CN(C(=O)CNc1cccnc1)C2` (stereo partly drawn) gave Bm FixLJ act 0.6.
Screening Cc1ccc(-c2c(C(=O)N3CCN(c4cc(Cl)ccc4C)CC3)oc(=O)c3ccccc23)cc1 returned Bm FixLJ act -0.97.
`O=C1CC2(CCN(c3nc(-c4ccccc4)nc4ccccc34)C2)C(=O)N1` (stereo not drawn) gave Bm FixLJ act -1.44.
CC(=O)Oc1ccc(C(c2ccc(OC(C)=O)cc2)c2ccccn2)cc1 was read as Bm FixLJ act -1.29&0.22.
CCn1cc(C(=O)O)c(=O)c2ccc(C)nc21 was read as Bm FixLJ act -0.6.
Cn1cnc(C(=O)NC2CCC(NC(=O)CCCCc3ccccc3)C2)c1 (stereo not drawn) was read as Bm FixLJ act 0.35.
`CCCCS(=O)(=O)CC(O)CSc1nc(-c2ccc(C)cc2)cc(-c2ccccc2)c1C#N` (stereo not drawn) gave Bm FixLJ act 0.71.
For Cc1cccc(Cl)c1NC(=O)N1CCC2(CCC(=O)N(C)C2)CC1 the results were Bm FixLJ act -2.49.
For CCC(=O)N1CCc2cc(S(=O)(=O)NC(C(=O)NCCc3cccc(C)c3)C(C)C)ccc21 (stereo not drawn) the results were Bm FixLJ act -0.03.
COc1ccc(NC(=O)c2ccco2)cc1NC(=O)COc1ccccc1 was read as Bm FixLJ act -2.31.

Four compounds drawn at random from the list so far, as already listed:
`CCCc1nnc(N2C(=O)c3oc4ccc(F)cc4c(=O)c3C2c2ccc(C(=O)OC)cc2)s1` (stereo not drawn) gave Bm FixLJ act -1.8.
Screening O=C(C1CCCN(S(=O)(=O)c2cccc3nonc23)C1)N1CCN(c2cccc(Cl)c2)CC1 (stereo not drawn) returned Bm FixLJ act -0.48.
`CCOC(=O)[C@]12COCCC1CN(C(=O)CNc1cccnc1)C2` (stereo partly drawn) gave Bm FixLJ act 0.6.
COc1ccc(NC(=O)c2ccco2)cc1NC(=O)COc1ccccc1 was read as Bm FixLJ act -2.31.

(cont.)
For CCSCCC(=O)N1CCCC(c2nccn2Cc2ccccn2)C1 (stereo not drawn) the results were Bm FixLJ act -2.43.
`Cc1ccc(NC(=O)Nc2csc3c2CCCC3)c(C)c1` gave Bm FixLJ act -1.04.
Screening CCOC(=O)CSc1nc(-c2ccc(Cl)cc2)cc(C(F)(F)F)c1C#N returned Bm FixLJ act -2.07.
Cn1c(=O)n(C)c2cc(NS(=O)(=O)c3ccc(Br)cc3)c(NCc3ccccc3)cc21 was read as Bm FixLJ act -0.09.
`Cc1cc(Cl)ccc1OCC(=O)Nc1c(C(=O)c2ccccc2)oc2ccccc12` gave Bm FixLJ act -1.17.
`COc1ccc(S(=O)(=O)c2cc3cc(OC)ccc3oc2=O)cc1` gave Bm FixLJ act 0.51.
`C[C@H](N)[C@H](O)c1ccc(O)c(O)c1` gave Bm FixLJ act 0.92.
O=C(c1ccc(Nc2nc3ccccc3n3nnnc23)cc1)N1CCN(c2ccc(F)cc2)CC1 was read as Bm FixLJ act -1.28.
For CCOC(=O)C1=C(CS(=O)(=O)c2ccc(F)cc2)NC(=O)NC1c1ccc(OCC)c(OC)c1 (stereo not drawn) the results were Bm FixLJ act 2.05.
`COc1ccc(C(=O)/C=C/c2cn(CC(O)CN(CC(C)C)CC(C)C)c3ccccc23)cc1OC` (stereo not drawn) gave Bm FixLJ act 0.86.
Screening Nc1nc(N)c(S(=O)(=O)c2ccccc2)c(Nc2ccccc2)n1 returned Bm FixLJ act -2.48.
`FC(F)(F)COCC(F)(F)F` gave Bm FixLJ act -1.27.

Structures shown so far that contain a CF3 group (three):
Screening CN(Cc1ccon1)C(=O)C1CCN(c2ccc(C(F)(F)F)cn2)C1 (stereo not drawn) returned Bm FixLJ act 0.56.
Screening CCOC(=O)CSc1nc(-c2ccc(Cl)cc2)cc(C(F)(F)F)c1C#N returned Bm FixLJ act -2.07.
`FC(F)(F)COCC(F)(F)F` gave Bm FixLJ act -1.27.

The list goes on.
For COc1ccc(CCNC(=O)Cc2c(C)c3cc4c(C(C)(C)C)coc4c(C)c3oc2=O)cc1 the results were Bm FixLJ act -0.44.
O=C(NC1c2ccccc2-c2ccccc21)C1NCCc2[nH]cnc21 (stereo not drawn) was read as Bm FixLJ act 0.24.
For COc1ccccc1-c1cc2nc(C)c(CCC(=O)NCCc3cccc(C)c3)c(C)n2n1 the results were Bm FixLJ act -0.45.
Screening CCOC(=O)c1ccc(NC(=O)CSc2nc(C)c(Cc3ccccc3)c(=O)[nH]2)cc1 returned Bm FixLJ act -1.52.
Cc1ccc(NC(=O)N2CC3CCC2CN(C(=O)C2CCC2)C3)c(C)c1 (stereo not drawn) was read as Bm FixLJ act 0.59.
O=C1N(CCC2CCCCC2)CCCC1(O)CNCc1cccc(Cl)c1 (stereo not drawn) was read as Bm FixLJ act -2.2.
For CCOC(=O)N1CCc2c(sc3c2C(=O)NC(c2ccc(C(=O)OC)cc2)N3)C1 (stereo not drawn) the results were Bm FixLJ act -0.37.
For CCCc1ccc(OCC(=O)Nc2sc3c(c2C(=O)OCC)CCC(C(C)(C)C)C3)cc1 (stereo not drawn) the results were Bm FixLJ act -0.26.
Screening Cc1ccc(-c2nnc(Nc3ccc(O)cc3)c3ccccc23)cc1S(=O)(=O)NC(C)(C)CO returned Bm FixLJ act -0.26.
For CC(C)C[C@H](NC(=O)[C@@H](COC(C)(C)C)NC(=O)[C@H](Cc1ccc(O)cc1)NC(=O)[C@H](CO)NC(=O)[C@H](Cc1c[nH]c2ccccc12)NC(=O)[C@H](Cc1cnc[nH]1)NC(=O)[C@@H]1CCC(=O)N1)C(=O)N[C@@H](CCCN=C(N)N)C(=O)N1CCC[C@H]1C(=O)NNC(N)=O the results were Bm FixLJ act -1.89.
Screening Cc1ccc(-c2nc(CS(=O)CC(=O)N3CCN(c4cccc(Cl)c4)CC3)c(C)o2)cc1 (stereo not drawn) returned Bm FixLJ act -0.66.
`O=C(NC1COCC1Cc1ccnc2ccccc12)C1CCC1` (stereo not drawn) gave Bm FixLJ act -1.8.
For CCCCNC(=O)CCCn1c(=O)c2ccccc2n(Cc2c(C)cc(C)cc2C)c1=O the results were Bm FixLJ act -1.46.
Screening CCCOc1ccc(C(=O)N(Cc2ccco2)Cc2ccco2)cc1 returned Bm FixLJ act -0.57.
Screening CC(C)Cn1cncc1CNCc1cc2ccc(Cl)cc2[nH]c1=O returned Bm FixLJ act -1.33.
`CCN1CCOC(=O)C1CC(=O)Nc1cc(C)ccc1OC` (stereo not drawn) gave Bm FixLJ act -0.1.
Screening CCCOc1ccc(C(=O)Nc2ccc3oc(-c4ccncc4)nc3c2)cc1 returned Bm FixLJ act 0.22.
For FC(F)(F)c1cccc(N2CCN(c3nc4ccccc4n4cnnc34)CC2)c1 the results were Bm FixLJ act 0.09.
`Cc1ccc(Sc2ccc(N3CCCC(C(=O)Nc4ccc(Br)cc4)C3)nn2)cc1` (stereo not drawn) gave Bm FixLJ act 0.28.
`Cc1ccc2nc(Cl)c3cc(C(=O)NC4CCCCCC4)sc3c2c1` gave Bm FixLJ act 0.35.
For COc1ccc(CNC(=O)Cn2c(-c3ccccc3)cc(C(C)=O)c2C)cc1OC the results were Bm FixLJ act -2.21.
COC(CNC(=O)CCn1c(CO)nc2ccccc21)c1cccs1 (stereo not drawn) was read as Bm FixLJ act -1.31.
For CCOC(C)CN(C)C(=O)NCc1cccc(OC)c1OC (stereo not drawn) the results were Bm FixLJ act -3.28.
For COc1ccc(OC)c(CNC(=O)CCCn2c(=O)c3cccn3c3cccnc32)c1 the results were Bm FixLJ act 0.58.
`CCCc1nc(NCc2noc(-c3ccccc3)n2)c2cnn(C)c2n1` gave Bm FixLJ act -0.71.
`CCC(=O)Oc1c(Sc2ccc(Cl)cc2)c(C)nn1-c1ccccc1` gave Bm FixLJ act -3.72.
`CCC1C(NC(=O)c2ccc(-n3cnnc3)cc2)C2CCOC12` (stereo not drawn) gave Bm FixLJ act -0.98.
Screening CCOC(=O)c1ccc(N2C(=O)Cc3cc(OCC)c(OCC)cc3C2c2ccccc2)cc1 (stereo not drawn) returned Bm FixLJ act 1.88.
`O=C(CC1=CSC2=NCCCN12)NCCCc1nc2ccccc2s1` gave Bm FixLJ act -0.84.
`COc1cccc(-c2ncc(CN3CCN(C)C(C(=O)O)C3)s2)c1` (stereo not drawn) gave Bm FixLJ act -1.11.
For O=C(NCc1cc2n(n1)CCN(C(=O)C1CCC1)C2)C(O)C1CCCCC1 (stereo not drawn) the results were Bm FixLJ act -0.05.
Screening CCOC(=O)[C@H](CCc1ccccc1)N[C@H]1CCc2ccccc2N(CC(=O)O)C1=O returned Bm FixLJ act -0.85.
Screening CCCC1=Nc2cc(C(=O)NCCOC)ccc2Sc2ccccc21 returned Bm FixLJ act -1.41.
`CC(C)(C)C(Cn1ccnc1)NC(=O)C=Cc1cc(CO)cs1` (stereo not drawn) gave Bm FixLJ act 0.54.
`O=C1CC(c2ccccc2)Cc2[nH]c(=O)c(C(=O)Nc3ccc(OC(F)(F)F)cc3)cc21` (stereo not drawn) gave Bm FixLJ act 0.97.
For Cc1oc2c(c(C)cc3oc(=O)c(CC(=O)NCCc4ccccc4)c(C)c32)c1C the results were Bm FixLJ act -1.5.
`Cc1c2cnn(CC(=O)N3CCN(c4ccc(F)cc4)CC3)c(=O)c2c(C)n1Cc1ccc(F)cc1` gave Bm FixLJ act 0.16.
COc1ccc(CNC(=O)CCc2nc(-c3ccc(OC)cc3)no2)cc1 was read as Bm FixLJ act -0.05.
`CCOC(=O)c1c(NC(C)=O)c2c3c(sc2n1Cc1ccc(Cl)cc1)CCCC3` gave Bm FixLJ act -0.26.
`Cc1ccc(NC(=O)C2CCN(S(=O)(=O)c3cccs3)CC2)cc1` gave Bm FixLJ act -1.28.
Cc1cccc(C)c1NC(=O)N1CCC2(CCC(=O)N(C3CC3)C2)CC1 was read as Bm FixLJ act -2.6.
Screening CCOc1ccc(-n2c(=O)c3c(C)c(C)sc3n(Cc3c(F)cccc3Cl)c2=O)cc1 returned Bm FixLJ act -2.2.
`CCOC(=O)c1cc(OC(=O)c2cccc(C)c2)n(-c2ccccc2)n1` gave Bm FixLJ act -1.46.
Screening Cc1ccc(C)c(NC(=O)c2nnn(Cc3ccc(F)cc3Cl)c2N)c1 returned Bm FixLJ act -0.54.
For CCn1c(=O)c2sccc2n2c(CCC(=O)Nc3ccc(C(C)C)cc3)nnc12 the results were Bm FixLJ act -0.27.
CCCc1nnc(NC(=O)C(CC)Sc2nnc3c4ccccc4n(C)c3n2)s1 (stereo not drawn) was read as Bm FixLJ act -1.78.
Screening O=C(NCc1ccccc1)c1ccc(CNS(=O)(=O)c2ccc(Br)cc2)cc1 returned Bm FixLJ act -0.78.
For NCC(=O)N1CCC2(CC1)OCCc1cc(C(=O)NCC3CCOC3)sc12 (stereo not drawn) the results were Bm FixLJ act -0.09.
For COC(=O)C(NC(=O)CCc1c(C)nc2c(-c3ccccc3)c(C)nn2c1C)C(C)C (stereo not drawn) the results were Bm FixLJ act -0.52.
Screening CN(CCC(=O)Nc1ccc(C(N)=O)cc1)Cc1nc2ccccc2n1C returned Bm FixLJ act 0.43.
COc1cccc(CNC(=O)c2ccc3c(c2)N(Cc2ccc(C(F)(F)F)cc2)C(=O)c2ccccc2S3)c1OC was read as Bm FixLJ act 1.02.
Screening COc1ccccc1C(=O)Nc1ccc2c(c1)nc(CN1CCCCC1)n2C returned Bm FixLJ act -2.31.
`CCOC(=O)c1c(N)n(-c2ccc(Cl)c(Cl)c2)c2nc3ccccc3nc12` gave Bm FixLJ act 0.6.

Not all compounds are listed; rates above refer to the full screens.
